D2 PAM = positive allosteric modulators of human D2 dopamine receptor; AID 624464; 360,000 tested, 0.23% active; DiscoveRx D2 beta-arrestin cells, luminescence, 90 min; 100% = 57 uM dopamine signal; P14416; potentiation, % (no concentration beside the values); active = potentiation of 50% or more; inconclusive = 30% to 50%; inactive = 30% or less;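 also: compound concentration not given in the record; tested on top of an EC20 dose of dopamine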
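PathHunter D2 cells, attached overnight at 37 deg C, received compound in DMSO plus dopamine at EC20 (50 nM final) for 90 min at 37 deg C. Beta-arrestin recruitment was read as luminescence after 1 h with detection reagent at ambient temperature.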
ClpP mod = qHTS Assay for Activators of ClpP | AID 651965, 2013 | ATP-dependent Clp protease proteolytic subunit (Bacillus subtilis (strain 168)), P80244 | purified B. subtilis ClpP, FRET peptide cleavage, 20 min | 340,000 tested, 1.9% active | Potency, µM (highest dose often 57.5 µM), for inactives: top-dose activity change, negative = active; active = well fitted falling curve with a large enough effect; inconclusive = small, poorly fitted or top-dose-only effect; inactive = no such curve, though single readings can be large or run the other way; also: potency is read from the fitted curve at half-maximal effect; the source files actives as falling curves though it sought activators and does not explain the sign; nearly all actives have a fitted effect of over 65% in size; many hits overshoot -100%
Target sequence (P80244 whole entry, looked up): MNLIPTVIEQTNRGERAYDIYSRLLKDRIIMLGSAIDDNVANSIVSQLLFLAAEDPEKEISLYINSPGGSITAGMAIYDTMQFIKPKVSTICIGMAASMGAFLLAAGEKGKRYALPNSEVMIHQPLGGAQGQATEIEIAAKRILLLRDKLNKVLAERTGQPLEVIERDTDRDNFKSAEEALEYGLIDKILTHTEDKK
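FRET quenching reversal measured ClpP activation: 10 microg/mL B. subtilis ClpP at pH 8 with the FRET-FV decapeptide, read at 430 nm after 320 nm excitation. The 20-min minus 0-min signal was scaled between DMSO/no-enzyme wells and ADEP (5.8 microM final).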
gsp antag = antagonizes gsp, the McCune-Albright syndrome mutation. gsp-mutant cells, cAMP HTRF, 30 min; control for the full effect not named in the record. Potency, µM (top dose mostly 76.9 µM), for inactives: at the top dose activity change, negative = inhibition, actives largely listed as inhibitors. 340,000 tested, 0.4% active. AID 624288; active = falling curve of any shape with a large fitted effect; inconclusive = falling curve, mostly with a smaller effect; inactive = flat or rising curve; cell line not stated here;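 also: intracellular cAMP measured with PDE inhibitor Ro 20-1724 present during compound exposure; potency is read from the fitted curve at half-maximal effect; % is scaled to controls: 0 for no effect and ±100 for the full control effect; nearly all actives have a fitted effect of over 65% in size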
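HTRF cAMP read-out (cAMP-d2 plus anti-cAMP antibody-K in lysis buffer, 30 min RT). Before lysis, cells are exposed to compounds with […] for 30 min at 37C in DPBS containing Ca/Mg, BSA and Tween 20.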
Menin MLL FP FL = menin-MLL binding inhibition, fluorescein peptide. Fluorescence polarization, fluorescein-MLL peptide displacement from menin. FP activity change, % at 61.4 µM. 290,000 tested, under 10 active. AID 1766; inconclusive = falling polarisation curve, or a change in total fluorescence; inactive = total fluorescence flat and polarisation flat or rising; no compound was filed as active; the % refers to the polarisation; negative = inhibition;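 also: % of control where 0% means no effect; inhibitors lower the polarisation; unlabelled MLL peptide was the positive control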
TRPV1 PAM = enhances activation of the human vanilloid receptor TRPV1; potentiation, % at 8.33 µM; TRPV1-expressing cells, Fluo-8 calcium influx, capsaicin EC20 potentiation; host cell line not named in the record; control for the full effect not named in the record; 320,000 tested, 0.02% active; active means potentiation above 80%; inconclusive means 30% to 80%; inactive means below 30%; also: 0% is about no effect
Target sequence (Q8NER1 whole entry, looked up): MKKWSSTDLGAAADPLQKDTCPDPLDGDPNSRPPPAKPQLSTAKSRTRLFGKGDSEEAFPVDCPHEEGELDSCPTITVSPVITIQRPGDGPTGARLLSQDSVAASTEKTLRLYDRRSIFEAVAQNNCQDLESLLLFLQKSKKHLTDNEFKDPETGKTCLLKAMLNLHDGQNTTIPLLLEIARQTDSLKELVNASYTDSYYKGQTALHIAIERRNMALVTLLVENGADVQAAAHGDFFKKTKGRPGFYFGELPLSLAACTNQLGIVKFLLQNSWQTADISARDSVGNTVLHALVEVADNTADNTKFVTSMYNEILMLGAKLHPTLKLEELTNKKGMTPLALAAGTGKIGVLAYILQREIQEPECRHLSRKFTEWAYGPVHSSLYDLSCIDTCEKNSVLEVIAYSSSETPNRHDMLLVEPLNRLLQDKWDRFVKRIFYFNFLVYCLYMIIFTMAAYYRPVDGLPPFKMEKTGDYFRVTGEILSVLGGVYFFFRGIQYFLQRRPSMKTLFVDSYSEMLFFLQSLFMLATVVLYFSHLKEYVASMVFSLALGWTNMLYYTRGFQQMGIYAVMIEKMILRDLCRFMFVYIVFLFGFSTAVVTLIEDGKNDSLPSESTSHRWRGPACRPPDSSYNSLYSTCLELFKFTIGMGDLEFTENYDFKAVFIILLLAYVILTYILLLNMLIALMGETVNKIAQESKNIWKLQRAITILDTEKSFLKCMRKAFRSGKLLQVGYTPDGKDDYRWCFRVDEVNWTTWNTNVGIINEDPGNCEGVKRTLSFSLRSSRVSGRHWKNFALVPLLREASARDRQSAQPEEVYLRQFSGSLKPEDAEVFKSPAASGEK
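TRPV1-expressing cells were cultured overnight at 35.5C and loaded with Fluo-8 calcium dye for 40 to 90 min at room temperature. After a 10 s baseline, compound was added and calcium influx was read kinetically for 3 min (ex 480/em 520 nm).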
Sfp PPTase inh = blocks B. subtilis Sfp PPTase activity | Q9F4F7 | Biochemical Sfp PPTase activity, qHTS | Potency, µM, without a hit: max response, negative = inhibition, actives largely listed as inhibitors | 310,000 tested, 3.5% active | AID 1490; active = well fitted inhibition curve with a large enough effect; inconclusive = small, poorly fitted or top-dose-only effect, or another doubt; inactive = no such curve, though single readings can be large or run the other way;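 also: the enzyme is Sfp with the accession as filed and its product quenches rhodamine fluorescence; potency is read from the fitted curve at half-maximal effect; 0% = enzyme reaction without inhibitor and -100% = no enzyme wells; top concentration of the series not given in the record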
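Compounds were incubated with enzyme (final 15 nM) for 15 min at room temperature before substrate addition started the reaction. Fluorescence at 525 nm excitation, 598 nm emission was recorded immediately and after 30 minutes.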
gsp ag = gsp mutant agonism. AID 624287. 340,000 tested, 0.13% active. Potency, µM (titrated, usually from 76.9 µM), without a hit: top-dose activation (cAMP increase), hits mostly activators. gsp mutant cells, cAMP HTRF, 30 min; control for the full effect not named in the record; active = well fitted activation curve with a large enough effect; inconclusive = small, poorly fitted or top-dose-only effect, or another doubt; inactive = no such curve, though single readings can be large or run the other way; cell line not stated here;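 also: phosphodiesterase inhibitor Ro 20-1724 added with compounds to block cAMP breakdown; potency is read from the fitted curve at half-maximal effect; nearly all actives have a fitted effect of over 60% in size; about a fifth of the inactives were tested at one dose only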
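Cells in DMEM/10% FBS with G418 were pretreated with compounds in DMSO plus […] (300 uM stock) for 30 min at 37C. cAMP was measured by HTRF (cAMP-d2 plus anti-cAMP antibody-K) after 30 min at room temperature.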
* marks the source's active call; other numbers are inactive results; ? = inconclusive; . = no result given; & = joins results of further samples; ! = not confirmed by another sample; [ ] = another dose, or the depositor's remark. This is a random part of the collection (roughly 5.1% active in at least one column).

compound	D2 PAM	ClpP mod	gsp antag	Menin MLL FP FL	TRPV1 PAM	Sfp PPTase inh	gsp ag
COCC(C)NC(=O)/C(=C/c1ccccc1)c1ccccc1 (stereo not given)	-7	-0.4%	5%	4.1	-1	16%	-31%[inhibitor]
CCOc1ccc(Br)cc1CNc1ccc2c(c1)OCCO2	-7	1.8%	-9%	2.4	7	0%	-5%[15.4 µM]
CCOc1nc(C)ccc1-c1noc(-c2ccco2)n1	-10	-5.6%	-2%	-0.4	-9	6%	-4%
COc1ccc(N=Cc2c(O)[nH]c3ccccc23)cc1	-9	1.4%	-17%	1.7	-9	18%	5%
COC(=O)C1=CN(Cc2ccc(OC)c(OC)c2)C=C(C(=O)OC)C1c1ccc(F)cc1	13	3.7%	-3%	0.4	15	4%	2%
COc1ccc(CC(NC(C)=O)C(=O)NC2CCN(c3c(Cc4ccccc4)c(C)nc4ncnn34)CC2)c(OC)c1 (stereo not given)	5	0.9%	-11%	-2.5	-3	15%	-5%
Cc1onc(-c2ccccc2Cl)c1C(=O)NC(=S)Nc1ccccc1C(N)=O	-16	-5.7%	-5%	7.4	10	50µM*	?
O=C(NCc1ccccc1)c1ccc(Cl)c(NC2=NC3CS(=O)(=O)CC3S2)c1 (stereo not given)	-2	-4.1%	9%	0.6	-8	16%	-56%[inhibitor]
Cn1c(N)c(C(=O)COC(=O)CCCc2c[nH]c3ccccc23)c(=O)n(C)c1=O	7	-2.8%	-11%	0.7	8	-1%	?
COc1cc(NC(=O)COc2ccccc2C)ccc1NC(=O)c1ccco1	-1	3.6%	-4%	-0.7	20	-14%	?
Cc1ccccc1Nc1scc(-c2ccc(Br)cc2)[n+]1-c1ccccc1C	-3	.	2%	0.4	2	14%	19%
Cc1ccc(NC(=O)COC(=O)c2cccc3c(=O)c(C)c(-c4ccccc4)oc23)cc1	1	.	5%	-0.1	5	?	-17%
CCn1c(SCC(=O)N2CCCC2=O)nnc1-c1cccs1	-3	-25%	6%	.	12	.	-4%
CN1CCN(Cc2nc3ccccc3c(=O)n2Cc2nc(-c3ccc([N+](=O)[O-])cc3)cs2)CC1	15	1.2%	3%	0.5	-1	-16%	?
N#C/C(=C\c1ccccc1C(F)(F)F)C(=O)Nc1ccccc1F	58*	2.2%	-12%	1.1	3	-12%	-18%
CCOC(=O)COc1ccc([N+](=O)[O-])cc1	-8	.	-7%	2.7	-15	0%	-9%[15.4 µM]
CCCOc1ccc(C(=O)NCCN2CCOCC2)cc1	-8	-1.5%	2%	-4.2	2	9%	19%[15.4 µM]
COc1ccccc1C(=O)Nc1ccc2c3c(cccc13)CC2	-11	83%	?	6.2	-6	-8%	-31%
O=C(/C=C/c1cccc(F)c1)N1CCN(c2ncccn2)CC1	1	.	3%	2.6	2	4%	6%
Nc1ncnc2c1ncn2[C@@H]1O[C@H](COP(=O)(O)O)[C@@H](O)[C@H]1O	-10	-0.8%	3%	-0.5&-8.7	5	3%&20%	.
COc1cc2ccccc2cc1C(=O)OCc1nc2ccsc2c(=O)[nH]1	-1	4.4%	-1%	.	1	.	?
CCOc1ccccc1Nc1nnc(SCC(=O)N(C)C2CCS(=O)(=O)C2)s1 (stereo not given)	-7	.	-5%	.	.	.	-14%
Nc1ncnc2c1ncn2CCNCCc1ccccc1	-34	-4.8%	2%[15.4 µM]	1.4	-5	15%	5%
Cc1ccc(S(=O)(=O)Cn2nnnc2C(CC(C)C)N2CCN(c3ccccc3)CC2)cc1 (stereo not given)	3	-1.3%	0%	0.6	4	4%	-15%
CC(C)c1ccc(NC(=O)CSc2nc(=O)n(CCCN3CCOCC3)c3c2CCCC3)cc1	-22	0.8%	-1%	.	1	.	-24%
O=c1oc2cc(O[C@@H]3OC[C@@H](O)[C@H](O)[C@H]3O)ccc2c2ccccc12	2	.	6%	8.2	30	9%	?
COc1ccccc1NC(=O)C(C)N(C)CCOc1ccccc1 (stereo not given)	-4	.	-13%	-3.9	0	-8%	16%
CS(=O)c1ccccc1COC(=O)Nc1cccc(Cl)c1 (stereo not given)	-4	-3.5%	-1%	3.1	3	11%	-3%
COc1ccccc1Nc1nnc(Cc2ccccc2)c(=O)[nH]1	-7	.	3%	-1.3	?	-2%	8%
O=C(CCc1ccccc1)NC(c1cccs1)c1cc(Cl)c2cccnc2c1O (stereo not given)	-7	.	.	-9.5	-4	20%	25%[15.4 µM]

Single records, from the list above. Order of screens: D2 PAM | ClpP mod | gsp antag | Menin MLL FP FL | TRPV1 PAM | Sfp PPTase inh | gsp ag
COc1ccccc1NC(=O)C(C)N(C)CCOc1ccccc1 (stereo not given) is listed as -4 | . | -13% | -3.9 | 0 | -8% | 16%
COc1ccccc1Nc1nnc(Cc2ccccc2)c(=O)[nH]1 is listed as -7 | . | 3% | -1.3 | ? | -2% | 8%

Additional results
compound	D2 PAM	ClpP mod	gsp antag	Menin MLL FP FL	TRPV1 PAM	Sfp PPTase inh	gsp ag
CC(=O)Nc1ccc(S(=O)(=O)NCC(=O)OCC(=O)NC(=O)c2cccn2C)cc1	1	.	10%	-1.7	9	4%	3%[15.4 µM]
COc1ccc(NC(=O)CSCC(=O)Nc2nnc(C3CC3)s2)cc1	24	-2.8%	7%	.	1	.	7%
COC(=O)C(=Nc1ccccc1)/C(C(=O)C(=O)N(C)c1ccccc1)=C(\O)c1ccc(Cl)cc1	-12	-1.2%	1%	-3.3	-10	-27%	?
CN1CC2(Cc3c1ccc1ccccc31)C(=O)OC(C)(C)OC2=O	11	14µM*!	-17%	1.5	0	-6%	-48%[inhibitor]
CCCN(CC(=O)Nc1ccccc1C)C(=O)c1ccc2ccccc2n1	-14	1.2%	-17%	.	-10	.	-84%[inhibitor]
Cc1ccc(N=Nc2c(O)n(CN3CCOCC3)c3ccccc23)cc1	-14	-6.2%	1%	?	.	6%	-28%
O=C(CSC1=NCCS1)N1CCCCCC1	-6	0.3%	3%	2.9	-5	-4%	-14%
O=C(Nc1ccccc1)N1CCCC1c1cccs1 (stereo not given)	-14	-0.7%	1%	3.8	20	20%	-8%
CC(=O)c1ccc(Oc2ccc(C(=O)c3ccc(C)c(C)c3)cc2[N+](=O)[O-])cc1	-3	0.6%	1%	-7.3	5	-7%	-15%
COc1ccc(/C=N/Nc2nc(-c3cccc(S(=O)(=O)N4CCCC4)c3)cs2)cc1OC	10	-7.3%	12%	4.1	5	-17%	-50%[inhibitor]
Cc1cc(NCc2ccccc2)nc(-c2ccccc2O)n1	20	?	-33%	3.3	0	-4%	-37%
Cc1ccc(CN2CCN(/N=C/C=C/c3ccccc3[N+](=O)[O-])CC2)cc1	-18	.	-10%	-3.6	6	?	-6%
CCOC(=O)C1(CCOc2ccccc2)CCN(Cc2cc(OC)cc(OC)c2)CC1	-26	.	-7%	-1.7	-6	2%	-14%
CC12CC(O)C3c4ccc(O)cc4CCC3C1CC/C2=N\O (stereo not given)	-7	-3.7%	-1%	-0.5	2	7%	-6%
O=C(C1=COCCO1)N(Cc1nnc(-c2ccccc2Cl)o1)C1CC1	6	1.3%	2%	.	-6	.	16%
CC(=O)N1CCN(Cc2nc3cc(NC(=O)Nc4ccccc4)ccc3n2C)CC1	4	-3.3%	8%	0.1	7	3%	-5%
O=C(CSc1ncn[nH]1)NCc1ccccc1	-9	0.5%	13%	-2.6	-3	11%	19%
O=C(NCC1CCCCC1)NCC1CCCCC1	-9	2.7%	9%	.	.	.	.
C=CCSc1nnc2c(n1)OC(c1cccnc1)N(C(C)=O)c1ccccc1-2 (stereo not given)	-14	-3.9%	-2%	-3.6	11	0%	14%
Cc1ccc(S(=O)(=O)Nc2ccc(N=Nc3ccc(O)cc3)cc2)cc1	-14	.	-20%	1.7	-12	-30%	8%[15.4 µM]
O=C(O)c1ccccc1-c1csc(-c2ccccc2)n1	-3	.	0%	0.4	2	14%	39%
COc1ccc(-c2ccc(CCC(=O)O)n2-c2ccccc2OC)cc1	-2	-5.0%	14%	-2.4	20	-12%	-14%
CCOC(=O)CSC1=Nc2ccccc2C2=NC(CC(=O)NCc3ccc(OC)cc3)C(=O)N12 (stereo not given)	-19	-9.6%	4%	1.1	4	3%	0%
CCC(C(=O)NCc1cccnc1)n1nc(C)c2sc3ccccc3c2c1=O (stereo not given)	-9	3.6%	0%	.	12	19%	?
CC(C)(C)SCCNC(=O)CN1C(=O)c2cccc3cccc1c23	-1	.	-1%	-0.3	-2	4%	3%
CCOC(=O)C(NC(=O)OC(C)C)(Nc1nccs1)C(F)(F)F (stereo not given)	-4	1.8%	9%	-3.1	-3	14%	-15%
Cc1cccc(C(=O)NCCc2ccc(S(N)(=O)=O)cc2)c1[N+](=O)[O-]	-1	-0.5%	9%	4.5	0	13%	25%
Cc1cccc(NC(=O)c2sc(-c3ccccc3)nc2-c2ccc([N+](=O)[O-])cc2)c1	-2	0.9%	-1%	4.8	2	15%	21%
O=C(C1CCCN(S(=O)(=O)c2cc(Cl)ccc2Cl)C1)N1CCCC1 (stereo not given)	4	0.7%	13%	-0.2	-9	11%	7%
Cc1ccccc1NC(=O)CSc1nnc(Cc2ccccc2)o1	-31	-1.9%	-1%	5.1	0	26%	-13%
CN(C)/C=N/c1ncc(-c2ncc(C(F)(F)F)cc2Cl)cn1	-11	.	.	0.1	-3	6%	1%[15.4 µM]
C/C(CCc1oc2ccc(Cl)cc2c1-c1ccc(C)o1)=N\O	-7	-17%	-19%	-2.4	-13	16µM*	-28%
COCCCNC(=O)c1ccc(Cn2c(=O)c3ccccc3n(Cc3ccccc3C)c2=O)cc1	-3	-11%&-16%	-1%	4.9	-10	1%	-52%

From PubChem BioAssay
